Assay outcomes as filed in PubChem BioAssay.
2A StopGo – lowers the luciferase signal of an FMDV 2A StopGo reporter. human cells with a luciferase reporter of 2A StopGo recoding; control for the full effect not named in the record. Potency, µM (doses to about 57.9 µM), without a hit: at the highest dose signal change, negative = less light. 410,000 tested, 1.2% active. AID 1159524; active = well fitted falling curve with a large enough effect; inconclusive = small, poorly fitted or top-dose-only effect; inactive = no such curve, though single readings can be large or run the other way; tested in HEK293T cells; note: % is set by controls: 0 for no effect and ±100 for the full control effect; nearly all actives have a fitted effect of over 45% in size; luciferase light after 4 h
Cruzain inh noDet – blocks cruzain activity in detergent-free assay; Potency, µM, for inactives: max response, negative = inhibition, most hits filed as inhibitors; 200,000 tested, 2.3% active; P25779; purified cruzain, Z-FR-AMC fluorescence, no detergent; active = well fitted curve in the direction sought with a large enough effect; inconclusive = small, poorly fitted or top-dose-only effect, or another doubt; inactive = no such curve, though single readings can be large; an effect the other way counts as inactive or inconclusive;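 note: plate controls were enzyme without inhibitor for no effect and buffer without enzyme for full effect; nearly all actives have a fitted effect of over 40% in size; top concentration of the series not given in the record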
Target sequence (P25779 123-467 limits assumed): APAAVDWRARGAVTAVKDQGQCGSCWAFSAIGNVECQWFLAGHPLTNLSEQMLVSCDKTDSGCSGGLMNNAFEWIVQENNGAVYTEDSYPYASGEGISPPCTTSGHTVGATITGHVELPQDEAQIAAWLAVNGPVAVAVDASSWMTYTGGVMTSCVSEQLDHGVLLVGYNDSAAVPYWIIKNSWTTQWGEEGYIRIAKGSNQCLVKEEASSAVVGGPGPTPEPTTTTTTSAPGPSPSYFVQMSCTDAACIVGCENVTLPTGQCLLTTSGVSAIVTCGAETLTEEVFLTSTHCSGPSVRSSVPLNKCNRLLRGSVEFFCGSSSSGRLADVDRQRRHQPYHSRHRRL
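Purified cruzain at 1.5 nM, pre-incubated 15 min with compound at room temperature in 100 mM sodium acetate pH 5.5, 5 mM DTT, 0.00005% Triton X-100. Reaction started with 2 uM Z-FR-AMC; AMC fluorescence increase over 60 s gives rate.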
LASV entry inh – inhibitors of Lassa virus binding or cell entry; Lassa virus pseudotype entry inhibition, cell reporter; control for the full effect not named in the record; Potency, µM (highest dose often 37.9 µM), inactives show top-dose activity change, negative = inhibition, actives largely listed as inhibitors; 300,000 tested, 1.2% active; active means well fitted inhibition curve with a large enough effect; inconclusive means small, poorly fitted or top-dose-only effect, or effect the other way; inactive means flat fitted curve, though single readings scatter; tested in HEK293 cells; note: % is set by controls: 0 for no effect and ±100 for the full control effect; nearly all actives have a fitted effect of over 50% in size; luciferase read-out
RE007 growth inh – less growth of the S. pombe RE007 Vpr strain | Potency, µM (series often up to 92.2 µM), for the others: at the highest dose activity change, negative = less growth | 360,000 tested, 0.21% active | S. pombe RE007 Vpr strain, BacTiter-Glo ATP luminescence, 24 h; control for the full effect not named in the record; active = well fitted falling curve with a large enough effect; inconclusive = small, poorly fitted or top-dose-only effect; inactive = no such curve, though single readings can be large or run the other way;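 note: % is set by controls: 0 for no effect and ±100 for the full control effect; nearly all actives have a fitted effect of over 50% in size; the assay follows cell death caused by Vpr and the record does not say whether a fall means rescue or toxicity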
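Fission yeast RE007 carrying one integrated HIV-1 vpr copy, seeded at OD 0.01 in PMG+AL medium with 23 nL pinned compound. Grown 24 h at 30 degrees; viability read by BacTiter-Glo luminescence after 5 min.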
NS1 function inh – influenza NS1 inhibition | S. cerevisiae slowed by influenza A NS1, growth recovery by OD600 | Potency, µM (highest dose often 46.1 µM), without a hit: at the top dose activity, positive = more growth | 270,000 tested, 0.4% active | AID 2326; note: actives are rising curves; nearly all actives have a fitted effect of over 50% in size
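In this qHTS, NS1 from influenza A is expressed in budding yeast, where it slows growth. Cells are switched from glucose to 2% galactose medium (pH 6.0, -URA), treated with compound, and growth recovery is read at OD600.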
SARS PLP yeast – blocks SARS-CoV papain-like protease in a yeast assay; S. cerevisiae expressing SARS-CoV PLpro, growth rescue; control for the full effect not named in the record; Potency, µM (highest dose often 32.9 µM), without a hit: top-dose activity, positive = growth rescue; 330,000 tested, 0.19% active; AID 485353; note: 0% is about no effect; nearly all actives have a fitted effect of over 55% in size; growth read by luminescence after 48 h
Cruzain Triton – blocks cruzain activity in presence of Triton detergent. P25779. purified cruzain, Z-FR-AMC fluorescence, 0.01% Triton. Potency, µM, inactives show max response, negative = inhibition, usual class: inhibitors. 200,000 tested, 0.43% active. AID 1478; active = well fitted curve in the direction sought with a large enough effect; inconclusive = small, poorly fitted or top-dose-only effect, or another doubt; inactive = no such curve, though single readings can be large; an effect the other way counts as inactive or inconclusive;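 note: plate controls were neutral wells for no effect and buffer without enzyme for full effect; nearly all actives have a fitted effect of over 40% in size; top concentration of the series not given in the record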
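Detergent-containing arm of a paired screen for aggregation-based inhibition: 0.01% Triton X-100 present. Cruzain at 1.5 nM cleaved 2 uM Z-FR-AMC at pH 5.5 with 5 mM DTT; AMC fluorescence gain over 60 s measured activity.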
MARV entry inh – inhibitors of Marburg virus binding or cell entry | Marburg virus pseudotyped entry inhibition, cell reporter; control for the full effect not named in the record; about a third of the inactives were read at about 46 µM | Potency, µM (highest dose often 37.8 µM), for inactives: at the highest dose activity change, negative = inhibition, hits mostly inhibitors | 300,000 tested, 1.8% active; active = well fitted inhibition curve with a large enough effect; inconclusive = small, poorly fitted or top-dose-only effect, or effect the other way; inactive = flat fitted curve, though single readings scatter; tested in HEK293 cells; about a fifth of its hits are not listed in these tables; note: % is set by controls: 0 for no effect and ±100 for the full control effect; luciferase read-out
Numbers without * were called inactive; ? = inconclusive; . = no result given; & = joins results of further samples; [ ] = another dose, or the depositor's remark. Unless noted, calls come from the whole dose curve; as a rule, active means well fitted rising curve with a large enough effect; inconclusive means small, poorly fitted or top-dose-only effect; inactive means no such curve, though single readings can be large or run the other way. Potency is the fitted concentration of half-maximal effect.

Start of the listing, in advance, 3 compounds:
SMILES	2A StopGo	Cruzain inh noDet	LASV entry inh	RE007 growth inh	NS1 function inh	SARS PLP yeast	Cruzain Triton	MARV entry inh
CCC1(C)NC(=O)N(/N=C/c2ccc(C)s2)C1=O (stereo not drawn)	55%[activator]	.	.	-7%	0%	2%	.	.
COC(=O)Cn1c(SCc2ccccc2)nc2ccccc21	0%	8%	6%	-2%	-16%	-9%	4.1%	-12%
CCSc1nc2c(c(=O)[nH]1)C(c1ccncc1)C(C(=O)OC)=C(C)N2 (stereo not drawn)	-10%	8%	-1%	-8%	12%	15%	0.9%	?

The listing (from the top)
SMILES	2A StopGo	Cruzain inh noDet	LASV entry inh	RE007 growth inh	NS1 function inh	SARS PLP yeast	Cruzain Triton	MARV entry inh
CCC1(C)NC(=O)N(/N=C/c2ccc(C)s2)C1=O (stereo not drawn)	55%[activator]	.	.	-7%	0%	2%	.	.
COC(=O)Cn1c(SCc2ccccc2)nc2ccccc21	0%	8%	6%	-2%	-16%	-9%	4.1%	-12%
CCSc1nc2c(c(=O)[nH]1)C(c1ccncc1)C(C(=O)OC)=C(C)N2 (stereo not drawn)	-10%	8%	-1%	-8%	12%	15%	0.9%	?
Cc1ccc(C(=O)NCC(=O)OC(C)C(=O)NC2CCCCC2C)cc1C (stereo not drawn)	19%	.	17%	-4%	.	-26%	.	1%[46.1 µM]
COc1ccc(OCC(=O)N(Cc2sccc2C)C2CCS(=O)(=O)C2)cc1 (stereo not drawn)	8%&-13%	-2%	6%&-3%[46.1 µM]	14%	6%	-1%	-5.9%	-2%&0%[46.1 µM]
CCCN(CCC)C(=O)Cc1ccc(F)cc1	-18%	.	23%	0%	2%	0%	.	16%[46.1 µM]
NS(=O)(=O)c1cc2c(cc1C(F)(F)F)NCNS2(=O)=O	-25%&16%	-1%&-1%&-4%	2%	-1%	-2%	0%	-2.9%&5.1%&2.0%	-10%&-10%&-10%&-10%&-10%
CCOC(=O)C1(CCCc2ccccc2)CCN(C2CCC2)CC1	0%	.	-14%	-14%	4%	-2%	.	?
O=C(NCc1ccc2c(c1)OCO2)c1ccc(Br)cc1	12%	.	.	-1%	-73%	-4%	.	.
CCOC(=O)C1=C(C)N=c2s/c(=C/c3ccco3)c(=O)n2C1c1cccc(OC)c1 (stereo not drawn)	-27%	25µM*	?	-2%	?	-16%	-29%	?
CC1(C)Cc2ccccc2-c2nc(CN3CCOCC3)[nH]c(=O)c21	-28%	9%	-8%	13%	-5%	-4%	-0.1%	-17%
Cc1cccc(C(=O)NCC(=O)OCc2nnc(-c3ccccc3)o2)c1	18%	.	10%	-1%	.	-9%	.	28%
COc1ccccc1NC(=O)C1CCN(S(=O)(=O)c2ccc3c(c2)oc(=O)n3C)CC1	-13%	0%	4%[46.1 µM]	.	.	.	-2.3%	18%[46.1 µM]
COc1ccc(CCNC(=O)CSCc2ccc(C)cc2)cc1OC	0%	.	-19%	3%	.	.	.	5%
Cc1ccc(N2CC(O)Cn3c2nc2c3c(=O)[nH]c(=O)n2C)cc1 (stereo not drawn)	11%	.	8%[46.1 µM]	2%	3%	15%	.	3%[46.1 µM]
COc1ccc(C2c3ccc(O)cc3Oc3ncn(CCN4CCOCC4)c(=N)c32)cc1OC (stereo not drawn)	-5%	.	-10%	-5%	2%	1%	.	2%
COCCn1c(-c2ccc(Cl)cc2)nc2oc3cc(OC)ccc3c(=O)c2c1=O	-4%	.	.	4%	-3%	2%	.	.
O=C(C1COc2ccccc2O1)N1CCc2ccccc2C1 (stereo not drawn)	19%	-6%	-3%	0%	-8%	29%	-0.7%	?
CCn1cc(CN(C)C(=O)CSc2nc(-c3ccco3)cc(C(F)(F)F)n2)c(C)n1	20µM*	.	-24%	27%	-34%	.	.	?
CCC(CC)C(=O)Nc1cc(C(=O)OC)ccc1C(=O)OC	-20%	-6%	-2%	-8%	-1%	1%	-0.3%	22%
CC(C)CC(c1nnnn1C(C)C)N1CCN(c2cccc(Cl)c2)CC1 (stereo not drawn)	?	1%	?	0%	-35%	0%	-0.1%	?
O=C(N/N=C/c1cc([N+](=O)[O-])ccc1O)/C(=C\c1cccs1)NC(=O)c1ccccc1	-12%	20µM*	?	-2%	18%	4µM*	-5.0%	?
CCOC(=O)C1CCN(S(=O)(=O)c2ccc(OCC(=O)OC)cc2)CC1	.	9%	-1%	-1%	-4%	1%	0.3%	0%
CCn1ccnc1CN1CCCC(C(=O)c2ccc(OC)cc2OC)C1 (stereo not drawn)	-10%	.	-13%[46.1 µM]	-17%	10%	0%	.	0%[46.1 µM]
CCCCn1c(CCC(=O)O)nc2cc(S(=O)(=O)N(CC)CC)ccc21	-4%	.	6%	3%	0%	-1%	.	0%[46.1 µM]
SMILES	2A StopGo	Cruzain inh noDet	LASV entry inh	RE007 growth inh	NS1 function inh	SARS PLP yeast	Cruzain Triton	MARV entry inh
COc1ccc(OC)c(N=Cc2c(O)c3ccccc3oc2=O)c1	28%	.	.	-2%	-2%	3%	.	.
COc1ccc(NC(=S)NC(=O)/C=C/c2ccco2)c(OC)c1	-9%	.	-5%[46.1 µM]	-4%	8%	-1%	.	?
CN(Cc1cccc(Cl)c1Cl)C(=O)c1cccc(S(=O)(=O)N2CCN(Cc3ccccc3)CC2)c1	?	.	?	?	-2%	-9%	.	?
O=c1[nH]c(C2CCN(S(=O)(=O)c3cccc([N+](=O)[O-])c3)CC2)nc2c1nnn2Cc1ccccc1	-18%	.	.	5%	8%	-1%	.	?
Cc1cc(OC(C)C(=O)NCc2cccnc2)c2c(C)c(C)c(=O)oc2c1 (stereo not drawn)	0%	.	4%[46.1 µM]	5%	-1%	-2%	.	-1%[46.1 µM]
O=C(c1ccccc1-c1ncc[nH]1)N1CCCC(Nc2ccc(F)cc2)C1 (stereo not drawn)	-10%	.	4%	-13%	1%	-2%	.	0%
O=C(Nc1cccc(S(=O)(=O)NC2=NCCC2)c1)c1cc(-c2ccccn2)nc2ccccc12	2%	.	.	8%	6%	0%	.	.
COc1ccccc1N1CCN(C(=O)CCCN2C(=O)c3cccc4cccc(c34)C2=O)CC1	?	?	-15%	-1%	-23%	-3%	-4.9%	?
Cc1ccc(-c2c3c(nc4sc(C(N)=O)c(N)c24)CCC3)cc1	-24%	-3%	2%	-14%	12%	2%	-9.6%	-11%
Cc1c2ccccc2cc(Cc2ccccc2)[n+]1C	-7%	.	.	-14%	8%	0%	.	.
COc1cc(COCC(O)CN2CCN(Cc3ccc4c(c3)OCO4)CC2)cc(OC)c1OC (stereo not drawn)	-5%	.	3%	12%	11%	-1%	.	?
Cc1ccc2c(Cl)c(C(=O)NCCCn3ccnc3)sc2c1	25%	-12%	0%	-18%	-3%	-18%	-7.6%	-2%
COCc1nnc(NC(=O)CCCOc2ccccc2)s1	8%	-9%	18%	3%	-1%	-1%	8.3%	-15%
CN(Cc1ccco1)C(=O)CCc1nc2sc3c(c2c(=O)[nH]1)CCCC3	-24%	.	.	4%	20%	1%	.	.
CNc1ccccc1NC(=O)CCn1c(=S)oc2ccccc21	15%	.	.	-13%	0%	1%	.	.
NN1C(=O)/C(=C2/Sc3ccccc3N2CCCS(=O)(=O)O)SC1=S	4%	.	.	5%	3%	8%	.	.
COc1ccc(-c2onc(C)c2C)cc1S(=O)(=O)NCC1CCN(Cc2ccccc2F)CC1	41%[activator]	4%	-22%[46.1 µM]	.	.	.	1.0%	.
COC(=O)c1ccc(C2/C(=C(/O)c3ccc(Cl)cc3)C(=O)C(=O)N2C2CCS(=O)(=O)C2)cc1 (stereo not drawn)	?	.	.	-5%	-2%	?	.	.
O=C(O)c1cccc(-n2c(O)c(C=C3N=c4ccccc4=N3)sc2=S)c1	?	.	.	-9%	9%	0%	.	.
Cc1cccc(/C=N/NC(=O)c2cc(Br)ccc2O)n1	39%[activator]	.	?	-7%	-61%	-4%	.	?
CCN(CC(=O)N1CCOCC1)S(=O)(=O)c1ccccc1	4%	.	.	-16%	-9%	-3%	.	25%[46.1 µM]
N/C(=N\OC(=O)c1ccc2ccccc2c1)c1ccccn1	-45%	.	?	-15%	.	?	.	?
CC1=C(C(=O)OC2CCCC2)C(c2ccc(Cl)cc2)CC(=O)N1 (stereo not drawn)	?	-5%	-10%[46.1 µM]	.	.	.	-5.5%	?
CC1=C(C(=O)OCC(C)C)C(c2ccsc2)NC(=O)N1 (stereo not drawn)	-10%	-30%	11%	29%	6%	-4%	-6.8%	-8%
CCOC(=O)Nc1ccc(S(=O)(=O)NCCCN2CCOCC2)cc1	2%	-8%	-15%	-2%	-1%	1%	-0.2%	-20%
COc1ccc(C2SCC(=O)N2C)cc1 (stereo not drawn)	27%	-1%	25%	16%	7%	-4%	5.1%	-1%
Cc1cccc(C)c1N1CCc2cn[nH]c21	-13%	7%	5%	10%	-11%	-5%	4.8%	-1%[46.1 µM]
O=C(Nc1cccc(-n2cnnn2)c1)c1ccncc1	-7%	.	.	4%	0%	-11%	.	.
CCn1c(Cc2cccc3ccccc23)nnc1SCC(=O)Nc1nccs1	?	4%	-7%	0%	6%	-7%	-4.3%	-1%
CCOC(=O)C1CCCN(c2nc3c(C)cccn3c(=O)c2/C=C(\C#N)C(=O)NCc2ccco2)C1 (stereo not drawn)	2%	.	.	5%	5%	0%	.	.

4 records picked at random from the list so far, as already listed:
SMILES	2A StopGo	Cruzain inh noDet	LASV entry inh	RE007 growth inh	NS1 function inh	SARS PLP yeast	Cruzain Triton	MARV entry inh
CCOC(=O)C1CCCN(c2nc3c(C)cccn3c(=O)c2/C=C(\C#N)C(=O)NCc2ccco2)C1 (stereo not drawn)	2%	.	.	5%	5%	0%	.	.
Cc1ccc2c(Cl)c(C(=O)NCCCn3ccnc3)sc2c1	25%	-12%	0%	-18%	-3%	-18%	-7.6%	-2%
Cc1ccc(-c2c3c(nc4sc(C(N)=O)c(N)c24)CCC3)cc1	-24%	-3%	2%	-14%	12%	2%	-9.6%	-11%
COc1cc(COCC(O)CN2CCN(Cc3ccc4c(c3)OCO4)CC2)cc(OC)c1OC (stereo not drawn)	-5%	.	3%	12%	11%	-1%	.	?
